Assay outcomes as filed in PubChem.
VDR inhibitor = Inhibitors of the vitamin D receptor (VDR): qHTS. Potency, µM, for inactives: max response, negative = inhibition, actives largely listed as inhibitors. AID 504847, 2011. Vitamin D3 receptor (Homo sapiens), P11473. 400,000 tested, 0.93% active. VDR-SRC2-3 peptide fluorescence polarization, 2 h; active = well fitted inhibition curve with a large enough effect; inconclusive = small, poorly fitted or top-dose-only effect, or another doubt; inactive = no such curve, though single readings can be large or run the other way; note: series mostly up to about 120 µM
Target sequence (P11473 whole entry, looked up): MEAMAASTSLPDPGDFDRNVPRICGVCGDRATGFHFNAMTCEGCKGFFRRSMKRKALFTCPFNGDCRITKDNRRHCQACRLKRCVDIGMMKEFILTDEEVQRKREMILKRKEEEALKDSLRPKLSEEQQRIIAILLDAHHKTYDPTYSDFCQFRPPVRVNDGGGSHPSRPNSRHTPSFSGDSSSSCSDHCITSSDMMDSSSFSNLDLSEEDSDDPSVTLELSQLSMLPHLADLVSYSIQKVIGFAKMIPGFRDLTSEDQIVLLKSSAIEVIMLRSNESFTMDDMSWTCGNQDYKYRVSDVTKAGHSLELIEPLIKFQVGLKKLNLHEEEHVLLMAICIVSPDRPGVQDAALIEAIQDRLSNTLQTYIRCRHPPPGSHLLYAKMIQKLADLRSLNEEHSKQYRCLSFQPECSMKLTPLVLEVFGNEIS
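The screen uses fluorescence polarization to detect compounds that interfere with recruitment of the SRC2-3 coactivator peptide to VDR; plates are read after 2 h at room temperature.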
Active calls of the source: *; ? = inconclusive; & = joins results of further samples. % is set by controls: 0 for no effect and ±100 for the full control effect; potency is the fitted concentration of half-maximal effect. An excerpt (hit frequency here may not be typical).

| canonical_smiles | VDR inhibitor |
| --- | --- |
| COc1ccc(C(=O)N(Cc2nc(-c3ccc(C)cc3)no2)C2CCCCC2)cc1OC | 1.0% |
| Cc1nc2ccc(S(=O)(=O)CCC(=O)Nc3ccc(C(C)C)cc3)cc2s1 | 9.1% |
| CCOc1ccccc1N(CC(=O)NC1CCCC1)C(=O)CNC(=O)c1cccs1 | -12.7% |
| CCN(CC)S(=O)(=O)c1cc(C(=O)Nc2cc(C)on2)ccc1Cl | -6.1% |
| CCCN(CCC)S(=O)(=O)c1cc(Br)cc2c1N(C(=O)CC)CC2 | 4.6% |
| O=C(c1ccc(S(=O)(=O)c2ccc(F)cc2)c([N+](=O)[O-])c1)N1CCCCCC1 | -25.1% |
| CCOC(=O)C1CCCN(CC(=O)Nc2c(C(=O)OC)[nH]c3ccc(Br)cc23)C1 (centres undefined) | 6.8% |
| CCc1ccccc1NC(=O)CN(C)C(=O)CSc1nn(-c2ccc(F)cc2)c(=S)s1 | -1.1% |
| Cc1nnsc1C(=O)Oc1ccc(C#N)cc1 | -2.8% |
| CCOC(=O)/C(=C\c1ccc(Cl)cc1)c1nc2sc(C)c(C)c2c(=O)[nH]1 | 25.1µM* |
| Cc1ccc(C(=O)N/N=C(\CC(C)C)c2ccccc2)cc1 | -4.5% |
| CCNC(=S)Nc1ccc(Cl)cc1 | 3.3% |
| COc1ccc(CNC(=O)CN2C(=O)NC(C)(c3ccc(C(C)(C)C)cc3)C2=O)cc1 (centres undefined) | -29.8% |
| O=C(NCc1ccccc1)c1ccc2nnsc2c1 | -3.9% |
| COc1ccc(-n2cc(C#N)c(=O)n(Cc3ccc(F)cc3)c2=O)cc1 | -16.7% |
| COCCNc1ccc([N+](=O)[O-])cc1C(=O)NC1CCCc2ccccc21 (centres undefined) | -15.2% |
| O=C(O)c1ccc([N+](=O)[O-])c(CS(=O)(=O)c2ccc(Cl)cc2)c1 | -4.1% |
| C(=N\c1c(-c2ccccc2)nc2n1CCS2)/c1ccccc1 | -13.4% |
| CCN(CC)S(=O)(=O)c1ccc(NS(=O)(=O)CC23CCC(CC2=O)C3(C)C)cc1 (centres undefined) | 14.7% |
| O=S(=O)(NCC(c1cccnc1)N1CCN(Cc2ccccc2)CC1)c1ccccc1 (centres undefined) | -5.1% |
| COc1ccc(S(=O)(=O)N2CCc3ccccc32)cc1C(=O)NC1(C)CCS(=O)(=O)C1 (centres undefined) | -5.5% |
| CCCCc1nc2cc(C(=O)N3CCCC(OCCC)C3)ccc2o1 (centres undefined) | -19.8% |
| O=C(Nc1ccsc1C(=O)O)c1ccccc1Cl | -4.8% |
| CCC(=O)N1CCc2cc(Br)cc(S(=O)(=O)CCC(=O)Nc3ccccc3C)c21 | 9.2% |
| Cc1ccccc1NC(=O)c1cccc(N2C(=O)C3CCCCC3C2=O)c1 (centres undefined) | 9.6% |
| O=C(Cc1cscn1)c1ccc(O)cc1O | 23.5% |
| Cc1cc(=O)[nH]c(SCC(=O)Nc2ccc(C(=O)O)cc2)n1 | -3.3% |
| CNC(=O)c1ccc(Nc2nnc(-c3ccc(C(N)=O)cc3)c3ccccc23)cc1 | -2.1% |
| CN1C(=O)/C(=C2\SC(N)=NC2=O)c2ccccc21 | -4.5% |
| COc1ccc(NC(=S)NC23CN4CN(CN(C4)C2)C3)c(OC)c1 | -0.5% |
| CCOc1ccc(C(=O)N2CCn3c2nc2ccccc23)cc1 | 8.0% |
| O=C(COC(=O)CC12CC3CC(CC(Br)(C3)C1)C2)NC(=O)NCc1ccco1 | 23.2% |
| CC1(C)Cc2c(sc(NC(=O)c3ccccc3Cl)c2C(=O)O)CO1 | 1.0% |
| Cn1c(=O)cc(SCC(=O)NCC2CCCO2)c2ccc(Cl)cc21 (centres undefined) | -5.6% |
| CCC(C)NC(=O)Cn1c(=O)sc2ccccc21 (centres undefined) | -2.0% |
| COc1ccc(-c2csc(NC(=O)CC(C)C)n2)cc1 | 5.7% |

A draw from above in order of molecular weight, low to high:
| canonical_smiles | VDR inhibitor |
| --- | --- |
| CN1C(=O)/C(=C2\SC(N)=NC2=O)c2ccccc21 | -4.5% |
| Cc1cc(=O)[nH]c(SCC(=O)Nc2ccc(C(=O)O)cc2)n1 | -3.3% |
| Cn1c(=O)cc(SCC(=O)NCC2CCCO2)c2ccc(Cl)cc21 (centres undefined) | -5.6% |

(list continues)
| canonical_smiles | VDR inhibitor |
| --- | --- |
| CCC(C(=O)NC1CCCCC1)n1c(SCc2cccc(C)c2)nc2ccncc21 (centres undefined) | 12.0%&4.0% |
| CCN(Cc1ccccc1)S(=O)(=O)c1cn(C)cn1 | -6.8% |
| COC(=O)COc1ccccc1C(=O)Nc1ccc(OC)cc1 | -13.1% |
| Cc1nonc1NC(=O)c1ccc(Cl)c(S(=O)(=O)N2CCCCC2)c1 | -14.8% |
| C=CCOc1c(CNC2CCCC2)cc(Cl)cc1OC | -9.9% |
| CCOC(=O)c1ccc(NS(=O)(=O)c2cc3c4c(c2)CCN4C(=O)CC3)cc1 | -17.1% |
| O=C(c1cn(Cc2ccccc2)nc1-c1cccnc1)N1CCN(Cc2c(F)cccc2Cl)CC1 | -24.5% |
| CO/N=C/c1cc([N+](=O)[O-])ccc1Sc1ccc(C)cc1 | 1.1% |
| CC(C)C(c1nnnn1Cc1cccs1)N1CCN(C(=O)c2ccco2)CC1 (centres undefined) | -9.1% |
| CC1Cc2ccccc2N1C(=O)COc1cccc(-n2cnnn2)c1 (centres undefined) | 8.5% |
| CC(C)C[C@H](NC(=O)NCc1ccc(Cl)cc1)C(=O)O | -13.2% |
| Cc1cccc(C)c1NC(=O)CS(=O)CC(=O)NCC1OCCc2ccccc21 (centres undefined) | 4.0% |
| O=C(NC1CCCCC1)C1CN(S(=O)(=O)c2ccccc2)CCN1S(=O)(=O)c1ccccc1 (centres undefined) | 2.0% |
| COc1ccc2oc(C(=O)OCC(=O)NC3(C#N)CCCC3)c(C)c2c1 | -15.2% |
| CCn1ccc2cc(S(=O)(=O)N3CCC(C(=O)NCc4cccc(Cl)c4)CC3)ccc21 | 0.6% |
| Cc1ccc(OCC(=O)Nc2ccccc2C(=O)OCc2cc(=O)n3nc(C4CC4)sc3n2)cc1 | 11.0% |
| CCOc1ccc(-n2c(SCC(=O)N3CCOCC3)nc3c([nH]c4ccccc43)c2=O)cc1 | -3.6% |
| O=c1cc(NS(=O)(=O)c2ccccc2)nc(SCc2ccccc2Cl)[nH]1 | -12.9% |
| Cc1ccc(Cl)c2c1NC(=O)C2(O)CC(=O)c1ccc(Br)cc1 (centres undefined) | -1.1% |
| N#Cc1ccccc1S(=O)(=O)N1CCN(C(=O)CCC2CCCC2)CC1 | 0.2% |
| Clc1ccc(OCCN2CCN(c3ncnc4sccc34)CC2)cc1 | -24.8% |
| COc1ccc(C(CNC(=O)C(=O)NC2CCCC2)N2CCN(C)CC2)cc1 (centres undefined) | -7.1% |
| CCC(=O)N1CCc2cc(S(=O)(=O)N3CCCCC3CC)ccc21 (centres undefined) | 10.4% |
| Cc1cc(C)n2nc(CC(=O)NC3CCCC(C)C3C)nc2n1 (centres undefined) | -16.4% |
| COC(=O)CSc1nc(C)c(C(C)=O)cc1C#N | -4.7% |
| Cc1ccc(NC(=O)Cn2ccsc2=N)cc1S(=O)(=O)N(C)C | 0.0% |
| c1ccc(C2(Cn3ccc4ccccc43)OCCO2)cc1 | -12.5% |
| Cc1cc(C)cc(-n2cnc3cc(C(=O)NCCc4ccccc4)ccc32)c1 | 1.4% |
| O=C(COC(=O)c1ccc(Br)cc1)NCCN1C(=O)CSC1=O | 7.4% |
| Cc1cc(C(=O)NCCCN2CCOCC2)n(-c2ccccc2)n1 | 3.3% |
| COc1ccc(NC(=O)COc2coc(CN3CCN(c4ccccc4)CC3)cc2=O)cc1 | -5.4% |
| Cc1ccccc1N(CC(N)=O)S(C)(=O)=O | -17.1% |
| C[C@@H]1NC(=O)N(c2ccc(F)cc2)C1=O | 7.3% |
| CC(C)n1nnc2ccccc2c1=O | 3.8% |
| CN(CCC1CCOCC1)C(=O)CC1C(=O)NCCN1Cc1ccoc1 (centres undefined) | -21.7% |
| Cc1ccc(-c2cc(C(=O)NCCCn3ccnc3)no2)cc1 | 6.7% |
| CCC(=O)Nc1cccc(-c2nc3ccccc3c(=O)o2)c1 | 1.5% |
| O=C(Nc1ccccc1C(F)(F)F)c1cccnc1 | 4.7% |
| COc1ccccc1-c1nn(-c2ccccc2)cc1C(=O)N1CCc2ccccc2C1 | -5.3% |
| CC(NC(=O)c1ccccc1NC(=O)CSc1nnnn1C)c1ccccc1 (centres undefined) | -5.8% |
| O=C(Nc1cccc(C(F)(F)F)c1)c1cc(-c2cccs2)on1 | 7.4% |
| COc1cc(OC)c2c(c1)O/C(=C\c1ccccc1)C2=O | -1.4% |
| CC(C)c1ccc(NC(=O)c2cccc3c2C(=O)N(C2CCCCC2)C3)cc1 | -6.7% |
| C=C[C@@H]1c2ccccc2N(S(=O)(=O)c2ccc(C)cc2)[C@H](c2ccccc2)C1(C#N)C#N | -2.6% |
| CC(C)C(=O)Nc1ccc(NC(=O)c2cccc3c(Br)cccc23)cc1 | ? |
| Cc1sc2nc(COC(=O)CNC(=O)c3ccc(C(C)(C)C)cc3)[nH]c(=O)c2c1C | 1.9% |
| CC1CCN(S(=O)(=O)c2cc(C(=O)N3CCN(c4cccc(Cl)c4)CC3)n(C)c2)CC1 | -8.0% |
| Cc1ccc(C)c(-n2ccnc2SCC(=O)Nc2cccc(S(=O)(=O)NC3=NCCC3)c2)c1 | -2.4% |
| CCn1c(=O)c(C(=O)Nc2ccc(C)cc2)c(O)c2ccccc21 | -12.1% |
| Cc1ccc(C(=O)N2[C@@H]3CN(C)C(=O)[C@@]2(Cc2ccccc2)[C@H]2C(=O)N(C)C(=O)[C@@H]32)cc1 | -15.0% |
| O=C(NCC(c1ccco1)N1CCN(c2ccc(F)cc2)CC1)C(=O)NC1CC1 (centres undefined) | 5.8% |
| CCOC(=O)c1sc(NC(=O)CSc2nc3ccccc3o2)c(C(=O)OCC)c1C | -11.0% |
| O=C(c1cccs1)N(Cc1ccc(F)cc1)C1CCS(=O)(=O)C1 (centres undefined) | 2.2% |
| Brc1ccc(C2=CSC3=NCCN23)cc1 | -3.9% |
| COc1ccc(/C=N/NC(=O)CCNc2n[nH]c(=O)[nH]c2=O)c(OC)c1 | -2.6% |
| COc1ccc(NC(=O)CCOc2cc(C)ccc2C)cc1S(=O)(=O)N1CCCCC1 | -10.4% |
| COC(=O)Cn1c(=O)c2c(nc3n2CC(C)CN3Cc2ccccc2)n(C)c1=O (centres undefined) | -2.2% |
| CSCCC(NS(=O)(=O)c1ccc(C)cc1)C(=O)N1CCN(S(=O)(=O)c2ccc(F)cc2)CC1 (centres undefined) | -6.7% |
| Cc1ccc(Cl)cc1NC(=O)CN1C(=O)NC2(CCCCCC2)C1=O | -4.1% |
| O=C(C1CC1)N1CCc2cc(Br)cc(S(=O)(=O)Nc3ccc(C(F)(F)F)cc3)c21 | -8.1% |

More records follow:
| canonical_smiles | VDR inhibitor |
| --- | --- |
| CCOC(=O)C(C)Sc1nnc(Cc2cc(=O)[nH]c(=O)[nH]2)n1-c1ccc(Cl)cc1 (centres undefined) | ? |
| CCCCn1c(=O)c(CCC(=O)OC(C)C(=O)Nc2cccc(Cl)c2Cl)nc2ccccc21 (centres undefined) | -1.4% |
| Cn1cnc2cc(NC(=O)c3ccco3)ccc21 | 2.6% |
| CCN(CC)S(=O)(=O)c1ccc(C)c(NC(=O)COc2ccc(Cl)cc2Br)c1 | -6.4% |
| O=C1CCN(CCc2ccccc2)CCN1C(CSc1ccc(Br)cc1)c1ccccc1 (centres undefined) | -6.4% |
| CCOCCCNC(=O)c1ccc2nc(CCc3ccccc3)oc2c1 | -1.2% |
| COc1ccccc1CCNS(=O)(=O)c1cn(C)c(=O)n(C)c1=O | 5.3% |
| CCOC(=O)c1[nH]c2ccc(Br)cc2c1NC(=O)CCN1CCN(C(=O)OCC)CC1 | 4.9% |
| C/C(=C\CO)CCO | -1.9% |
| O=C1CC(c2ccccc2)=NO1 | ? |
| COc1cc(/C=C2\SC(=O)N(CCNC(=O)c3c(C)noc3C)C2=O)cc(OC)c1OC | -2.5% |
| Cc1ccc(CCNC(=O)C2CCN(S(=O)(=O)c3ccc4c(c3)CCC(=O)N4)CC2)cc1 | -18.0% |
| Cc1ccc([C@H]2Nc3ccc(S(=O)(=O)Nc4cccc(Cl)c4C)cc3[C@H]3C=CC[C@H]32)cc1 | -6.0% |
| CC(C)n1ncc2c(C(=O)Nc3ccc(S(N)(=O)=O)cc3)cc(C3CC3)nc21 | -9.3% |
| COc1ccc(C2N3CC4(C)CN2CC(c2ccccc2)(C3)C4=O)cc1 (centres undefined) | 1.8% |
| Cc1nc(NC(=S)NC(=O)c2ccccc2)sc1C(=O)N(C)C | -14.2% |
| COC(=O)c1ccc(NC(=S)N2CCN(CCO)CC2)cc1 | -19.6% |
| Cc1ccc(OCC(=O)NCC2CCCO2)c(C)c1 (centres undefined) | 0.6% |
| Cc1ccc(Cn2ncc3c(NCCN(C)C)ncnc32)cc1 | -23.1% |
| O=C(CNC(=O)c1nc[nH]c1C(=O)NCc1ccccc1)OCc1ccccc1 | 4.9% |
| CN1C(=O)c2ccccc2C(C(=O)NCC2CCCO2)C1c1c[nH]c2ccccc12 (centres undefined) | -14.5% |
| Cc1noc(NC(=O)c2c(-c3c(Cl)cccc3Cl)noc2C)c1[N+](=O)[O-] | 4.2% |
| CCCCc1nnc(NC(=O)C2CC(=O)N(Cc3ccccc3)C2)s1 (centres undefined) | 16.2% |
| CCC(=O)NNc1nc2c(Cl)cccc2s1 | -3.7% |
| C/C(=N/NS(=O)(=O)c1cccc([N+](=O)[O-])c1)c1c[nH]c2ccccc12 | -4.3% |
| CCN(CC)CCCNC(=O)C(C)n1nc(C)n2c(cc3occc32)c1=O (centres undefined) | 10.3% |
